# Screening data: PubChem, several laboratories
# BJeLR viability: MLPCN primary cell-based screen for lethality selective to Ras in HRASV12 cells. actives 0.17% (n = 300,000). inhibition, % (concentration not given with the values). BJeLR (HRASV12) viability, CellTiter-Glo ATP luminescence, 48 h; reference of the scale not given here;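 active means replicate mean above 50%; inconclusive means above 50% but judged a plate artefact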;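 further: 50 nL library stock added to about 25 µL; numbers are from one replicate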
# Mtb hypoxia rep: PubChem AID 1159583; M. tuberculosis hypoxia-regulated fluorescent reporter, fluorescence; fluorescence inhibition, % (test concentration not listed); actives 0.1% (n = 300,000);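 active means 35 to 45% if threefold the growth effect, above 45% if 1.5-fold the growth effect; inactive means the rest, general growth blockers included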;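 further: wells of about 50 µL received 100 nL stock; 0% = vehicle wells and 100% = reference inhibitor wells; whole bacteria with a GFP reporter of the hypoxia response; strong numbers were not always called active; many hits fall short of the cut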
# Sa ugtP lethal: growth inhibition of ugtP-null S. aureus, primary screen, RN4220 ugtP deletion, OD600; 16 h; some inactives read as strong as hits; growth inhibition, % (test concentration not listed); actives 0.54% (n = 330,000); AID 1259309, 2017;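 active means z-score under -3 and OD600 up to 0.15 on both plates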;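 further: plate controls were untreated wells for no effect and antibiotic for full effect; wells of about 80 µL received 100 nL stock; the first replicate is given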
# PrP UTR inh: inhibition of PrP 5' UTR reporter expression; inhibition, % (concentration not given with the values); cell-based PrP 5' UTR mRNA reporter, plate reader; actives 0.35% (n = 340,000);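 active means every replicate at 50% or more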;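 further: 0 = median of the neutral control wells; tested in H4 reporter cells; numbers are from one replicate; inactives centre near -14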
# Sa RN4220 lethal: growth inhibition of S. aureus RN4220, primary screen, OD600; inhibition, % (test concentration not listed); actives 0.33% (n = 330,000); 16 h; AID 1259311, 2017;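 active means z-score of -3 or lower and OD600 up to 0.18 on both plates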;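 further: plate controls were untreated cells for no effect and reference antibiotic for full effect; stock transfer was 100 nL into about 80 µL; one replicate is shown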
# Autofluor counter: flagged as autofluorescent in microsphere protease counterscreen | compound autofluorescence counterscreen, microsphere flow cytometry; active compounds read high | fluorescence intensity (concentration not given with the values) | actives 3.1% (n = 360,000);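 active means at least 3 SD above the mean of all compounds, about 16000 in these data; inconclusive means too few beads counted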;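 further: 100 nL of 1 mM stock went into each well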
# Mtb hypoxia rep growth: recorded beside Mtb hypoxia rep, whose call it bears; growth inhibition, %; measured here: M. tuberculosis growth (absorbance);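 0% = vehicle and 100% = reference antibiotic; read after six days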
# * hit, by the source's call; ? = inconclusive; . = not tested or not shown.
SMILES,PrP UTR inh,Autofluor counter,Sa ugtP lethal,Mtb hypoxia rep growth,Mtb hypoxia rep,Sa RN4220 lethal,BJeLR viability
CN(CCOc1ccc(Cl)cc1)C(=O)C1=CC=CN2CCS(=O)(=O)N=C12,-14,3442,10,9,10,4.7,.
COc1ccc(S(=O)(=O)N2CCC(C(=O)NC3CC3)CC2)cc1OC,2,4967,11,9,10,4.3,3
CC(NC(=O)CCc1ccc(S(=O)(=O)NC2CCCCC2)cc1)c1ccccc1 (centres undefined),-13,2353,6,.,.,-4.8,3
Cc1ccc2ncccc2c1,5,5610,11,0,5,4.8,.
CC1CC(C)CN(C(=O)CSc2ncnc3sccc23)C1 (centres undefined),-1,?,-2,10,4,-0.5,.
CCc1ccc(-c2cc(C)no2)cc1S(=O)(=O)Nc1cccc(CN2CCCC2)c1,6,5655,6,2,4,1.8,-2
COC(=O)c1cc(NC(=O)CSc2ncn[nH]2)ccc1Cl,-3,5975,-2,1,6,3.0,-13
O=C(NCc1ccco1)C1CC(c2ccc(Cl)cc2)=NO1 (centres undefined),-23,4908,5,.,.,-0.1,2
O=C(CSc1ncnc2c1oc1ccccc12)Nc1nccs1,-20,5957,10,-2,-3,2.6,9
CN(C)c1ccc(CNc2ncn[nH]2)cc1,-29,4440,0,6,-8,-1.2,7
COC(=O)Cc1c(C)c2ccc(OCC(=O)N(C)C)cc2oc1=O,-21,15958,-3,3,-7,-3.4,-2
O=C(NCc1ccco1)c1ccc(CS(=O)Cc2cccc(Cl)c2)o1 (centres undefined),14,4243,4,5,1,-0.2,-7
COc1ccccc1C(C)=NNC(=S)NCc1ccccc1,.,.,4,8,14,2.7,.
CC(C)CN(C(=O)c1cccc(Cl)c1)c1c(N)n(CC(C)C)c(=O)[nH]c1=O,-15,6195,7,3,0,3.0,-8
CC(C)CN1CCN(Cc2ccc(CN3CCCCC3)s2)CC1CCO (centres undefined),-24,2494,.,.,.,.,-3
Cc1cc(C(=O)COC(=O)CCc2nc3ccccc3s2)c(C)n1C,-7,14955,0,3,6,0.8,3
Fc1ccc(CSc2ccc(-c3cccs3)nn2)cc1,-61,8841,6,-7,-6,6.8,4
COc1ccc(/C=C2\SC(=S)N(CCCC(=O)Nc3ccc(C(=O)O)cc3)C2=O)cc1OC,-6,4329,-2,-3,-10,6.5,4
C[C@H](CO)N1C[C@H](C)[C@@H](CN(C)CC2CCCCC2)Oc2ccc(NC(=O)CCN3CCOCC3)cc2C1=O,-18,4941,-1,6,10,-15,.
CC(=O)Nc1ccc(S(=O)(=O)N2CCC(N3CCCCC3)CC2)cc1,-6,2908,.,.,.,.,4
CCc1noc(C)c1C(=O)Nc1nc2ccc(S(C)(=O)=O)cc2s1,-20,6149,4,4,6,2.0,-8
CC1=CC(C)(C)n2c(O)c(N=NC(N)=S)c3cc(C)cc1c32,-8,2122,7,1,1,-0.5,-13
C=CCn1cc(/C=N/N2C(=O)C3C4C=CC(C4)C3C2=O)c2ccccc21 (centres undefined),-20,3655,.,.,.,.,3
COc1ccc(C(=O)CC(c2ccccc2)C2C(=O)CCCC2=O)cc1 (centres undefined),-21,8532,9,1,-6,6.2,1
CCN(CC)c1ccc(NC(=O)c2nc3nc(C)cc(C(F)F)n3n2)cc1,-4,5475,-1,11,8,-15,2
COc1ccc(C(=O)N/N=C(\C)CC(=O)Nc2ccc(N(C)C)cc2)c(OC)c1,4,4094,.,.,.,.,1
O=C1NC(=O)c2cc(NC(=O)C3CCCO3)ccc21 (centres undefined),8,22178*,1,7,2,0.9,8
N#C/C(=C\c1ccc(OCc2ccc(Cl)cc2)cc1)C(=O)Nc1cccc(C(=O)O)c1,-102,6134,2,5,12,-3.8,-14
CC(=O)Cc1nsc(NC(=O)c2ccc(-c3ccc(Cl)c(C(F)(F)F)c3)o2)n1,.,.,-4,6,7,11,4
N#Cc1cccc(NC(=O)CSc2nnc(C3CC3)n2C2CC2)c1,4,7817,2,0,3,5.1,.
CC1=NN2C(=N)/C(=C\c3cc(C)n(-c4cccc(C)c4)c3C)C(=O)N=C2S1,-2,3596,-35,1,-11,-5.3,11
Cc1ccc(NC(=O)CN2C(=O)CSc3ccc(S(=O)(=O)N4CCCCC4)cc32)cc1,-3,5816,7,-11,3,-2.4,3
CCCCOc1ccc(C2(C)CC(=O)NC2=O)cc1 (centres undefined),-24,2709,15,.,.,-0.1,1
Fc1ccc(-c2nnc(CSc3nnc(-c4cccs4)o3)o2)cc1,-26,2606,-13,13,7,5.1,-3
O=C(COC(=O)c1ccccc1)Nc1ccccc1N1CCOCC1,-8,2393,-4,5,3,3.1,-7
Cc1cc2cc(CCNC(=O)c3ccc(S(=O)(=O)N4CCOCC4)cc3)c(=O)[nH]c2cc1C,-14,2146,-8,.,.,4.6,-4

# Molecules shown so far containing four or more nitrogen atoms:
SMILES,PrP UTR inh,Autofluor counter,Sa ugtP lethal,Mtb hypoxia rep growth,Mtb hypoxia rep,Sa RN4220 lethal,BJeLR viability
COC(=O)c1cc(NC(=O)CSc2ncn[nH]2)ccc1Cl,-3,5975,-2,1,6,3.0,-13
O=C(CSc1ncnc2c1oc1ccccc12)Nc1nccs1,-20,5957,10,-2,-3,2.6,9
CN(C)c1ccc(CNc2ncn[nH]2)cc1,-29,4440,0,6,-8,-1.2,7
CC(C)CN(C(=O)c1cccc(Cl)c1)c1c(N)n(CC(C)C)c(=O)[nH]c1=O,-15,6195,7,3,0,3.0,-8
C[C@H](CO)N1C[C@H](C)[C@@H](CN(C)CC2CCCCC2)Oc2ccc(NC(=O)CCN3CCOCC3)cc2C1=O,-18,4941,-1,6,10,-15,.
CC1=CC(C)(C)n2c(O)c(N=NC(N)=S)c3cc(C)cc1c32,-8,2122,7,1,1,-0.5,-13
CCN(CC)c1ccc(NC(=O)c2nc3nc(C)cc(C(F)F)n3n2)cc1,-4,5475,-1,11,8,-15,2
COc1ccc(C(=O)N/N=C(\C)CC(=O)Nc2ccc(N(C)C)cc2)c(OC)c1,4,4094,.,.,.,.,1
N#Cc1cccc(NC(=O)CSc2nnc(C3CC3)n2C2CC2)c1,4,7817,2,0,3,5.1,.
CC1=NN2C(=N)/C(=C\c3cc(C)n(-c4cccc(C)c4)c3C)C(=O)N=C2S1,-2,3596,-35,1,-11,-5.3,11
Fc1ccc(-c2nnc(CSc3nnc(-c4cccs4)o3)o2)cc1,-26,2606,-13,13,7,5.1,-3
